# D2 agonist: agonists of human D2 dopamine receptor (beta-arrestin); P14416; DiscoveRx PathHunter D2 beta-arrestin, luminescence, 90 min; 100% = 57 uM dopamine signal; activation, % (no concentration beside the values); 0.084% of 360,000 active; in the data active = activation above about 40%; inconclusive = about 15% to 40%; inactive = below about 15%; also: compound concentration not given in the record; the text of the record calls up to 30% inactive
# Target sequence (P14416 whole entry, looked up): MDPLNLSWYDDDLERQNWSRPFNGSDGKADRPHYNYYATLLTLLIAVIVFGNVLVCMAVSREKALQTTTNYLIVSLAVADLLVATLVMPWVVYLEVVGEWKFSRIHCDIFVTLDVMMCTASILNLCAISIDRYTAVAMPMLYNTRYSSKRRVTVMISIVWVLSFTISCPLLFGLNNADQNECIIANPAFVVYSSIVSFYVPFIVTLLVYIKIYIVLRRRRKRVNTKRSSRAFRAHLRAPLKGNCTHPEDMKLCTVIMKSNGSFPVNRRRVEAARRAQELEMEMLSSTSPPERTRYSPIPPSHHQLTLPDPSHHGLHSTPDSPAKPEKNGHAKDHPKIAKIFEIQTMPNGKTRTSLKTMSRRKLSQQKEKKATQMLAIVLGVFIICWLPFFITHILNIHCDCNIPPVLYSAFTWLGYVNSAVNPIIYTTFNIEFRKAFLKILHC
#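 DiscoveRx PathHunter D2 beta-arrestin cells (2,100/well) attached overnight, then compound-stimulated 90 min at 37 C in HBSS/10 mM HEPES/0.1% Tween-20 buffer; beta-galactosidase complementation read by luminescence after 1 h at ambient temperature. Dopamine 57 uM final (EC100) as control.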
# ClpP mod: qHTS Assay for Activators of ClpP | purified B. subtilis ClpP, FRET peptide cleavage, 20 min | 1.9% of 340,000 active | Potency, µM (doses to about 57.5 µM), inactives show top-dose activity change, negative = active | AID 651965, 2013; active = well fitted falling curve with a large enough effect; inconclusive = small, poorly fitted or top-dose-only effect; inactive = no such curve, though single readings can be large or run the other way; also: potency is read from the fitted curve at half-maximal effect; the source files actives as falling curves though it sought activators and does not explain the sign; nearly all actives have a fitted effect of over 65% in size; many hits overshoot -100%
# Target sequence (P80244 whole entry, looked up): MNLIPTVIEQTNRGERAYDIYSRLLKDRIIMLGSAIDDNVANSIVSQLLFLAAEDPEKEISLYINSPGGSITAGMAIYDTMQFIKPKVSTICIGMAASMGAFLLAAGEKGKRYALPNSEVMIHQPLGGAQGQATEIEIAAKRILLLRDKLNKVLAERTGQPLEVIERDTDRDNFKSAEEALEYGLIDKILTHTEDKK
#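 ClpP 10 microg/mL final, pH 8 Tris/KCl buffer with BSA, glycerol, Tween-20; compound pinned in; FRET-FV substrate; RT 20 min; Ex320/Em430; ΔFRET vs ADEP 5.8 microM, DMSO, no enzyme.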
# PINK1 modulator: PINK1 expression modulation | PINK1 immunofluorescence, high-content cytometry, 24 h | Potency, µM (titrated, usually from 76.6 µM), for the others: top-dose activation (PINK1 increase), hits mostly activators | 0.2% of 410,000 active; active = well fitted activation curve with a large enough effect; inconclusive = small, poorly fitted or top-dose-only effect; inactive = flat fitted curve, though single readings scatter; cell line not stated here;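 also: potency is read from the fitted curve at half-maximal effect; % of control where 0% means no effect; nearly all actives have a fitted effect of over 65% in size; a mitochondrial uncoupler was the plate control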
#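 Measures PINK1 amount and localization on or inside mitochondria by immunofluorescence. Stable cells get compounds at 5 concentrations for 24 hours before fixation and staining; CCCP controls included.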
# gsp ag: gsp mutant agonism; gsp mutant cells, cAMP HTRF, 30 min; control for the full effect not named in the record; Potency, µM (series often up to 76.9 µM), without a hit: top-dose activation (cAMP increase), most hits filed as activators; 0.13% of 340,000 active; active = well fitted activation curve with a large enough effect; inconclusive = small, poorly fitted or top-dose-only effect, or another doubt; inactive = no such curve, though single readings can be large or run the other way; cell line not stated here;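 also: phosphodiesterase inhibitor Ro 20-1724 added with compounds to block cAMP breakdown; potency is read from the fitted curve at half-maximal effect; nearly all actives have a fitted effect of over 60% in size; about a fifth of the inactives were tested at one dose only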
#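 Cells stably selected in G418 were plated at 2000/well, grown 16-24 hr, then given compounds in DMSO with the PDE inhibitor […] (300 uM solution added) for 30 min at 37C; cAMP was read by HTRF.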
# Menin-MLL FL inh: menin-MLL binding inhibition, fluorescein peptide. 290,000 tested, under 10 active. Fluorescence polarization, fluorescein-MLL peptide displacement from menin. AID 1766. FP activity change, % at 61.4 µM; inconclusive = falling polarisation curve, or a change in total fluorescence; inactive = total fluorescence flat and polarisation flat or rising; no compound was filed as active; the % refers to the polarisation; negative = inhibition;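 also: % of control where 0% means no effect; inhibitors lower the polarisation; unlabelled MLL peptide was the positive control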
# gsp antagonist: antagonizes gsp, the McCune-Albright syndrome mutation; Potency, µM (titrated, usually from 76.9 µM), without a hit: at the top dose activity change, negative = inhibition, usual class: inhibitors; 0.4% of 340,000 active; gsp-mutant cells, cAMP HTRF, 30 min; control for the full effect not named in the record; active = falling curve of any shape with a large fitted effect; inconclusive = falling curve, mostly with a smaller effect; inactive = flat or rising curve; cell line not stated here;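 also: intracellular cAMP measured with PDE inhibitor Ro 20-1724 present during compound exposure; potency is read from the fitted curve at half-maximal effect; % is scaled to controls: 0 for no effect and ±100 for the full control effect; nearly all actives have a fitted effect of over 65% in size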
#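 Cells in G418 medium, seeded 16-24 h, 37C; buffer exchange to DPBS + 1 mM CaCl2, 0.5 mM MgCl2, 0.05% BSA; cpds in DMSO + […] (300 uM stock), 30 min 37C; HTRF cAMP detection.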
# Sfp inh: blocks B. subtilis Sfp PPTase activity. Q9F4F7. Potency, µM, inactives show max response, negative = inhibition, usual class: inhibitors. Biochemical Sfp PPTase activity, qHTS. 3.5% of 310,000 active; active = well fitted inhibition curve with a large enough effect; inconclusive = small, poorly fitted or top-dose-only effect, or another doubt; inactive = no such curve, though single readings can be large or run the other way;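 also: the enzyme is Sfp with the accession as filed and its product quenches rhodamine fluorescence; potency is read from the fitted curve at half-maximal effect; 0% = enzyme reaction without inhibitor and -100% = no enzyme wells; top concentration of the series not given in the record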
#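 Fluorescence-quenching assay: 15 nM Sfp-PPTase preincubated 15 min at room temperature with compound, then 5 uM rhodamine-CoA and 12.5 uM BHQ-2-labelled YbbR peptide added. Fluorescence (ex 525/em 598 nm) read at start and after 30 min; difference gives rate.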
# Numbers without * were called inactive; u = inconclusive; x = not tested or not shown; [ ] = dose if it differs, or a comment.
SMILES,D2 agonist,ClpP mod,PINK1 modulator,gsp ag,Menin-MLL FL inh,gsp antagonist,Sfp inh
Cc1cccn2cc(CCNS(=O)(=O)c3cccs3)nc12,4.0,x,-0.1%,-6%[15.4 µM],-2.9,2%,1%
O=C(CCSc1ccc(F)cc1)NNC(=O)c1ccccc1Cl,5.4,-0.8%,1.3%,-21%,x,2%,x
O=C(COC(=O)c1ccccc1-n1cnnn1)c1ccccc1,-3.8,x,-4.5%,18%[15.4 µM],x,11%,x
COC(=O)/C=C1\N/C(=N/c2nc(C)c3cc(OC)ccc3n2)NC1=O,-0.9,-0.7%,-0.6%,1%[15.4 µM],-0.7,-11%,-3%
Cc1ccc(C(=O)N2CCN(Cc3nc4sc5c(c4c(=O)[nH]3)CCCC5)CC2)cc1,-6.3,-0.6%,4.5%,-5%[15.4 µM],5.9,-5%,8%
Cc1cc2c(c(=O)n1Cc1ccccn1)C(c1ccc3c(c1)OCO3)C(C#N)=C(N)O2 (stereo unspecified),-3.0,-2.5%,2.7%,-11%,1.8,-3%,13%
COc1cccc(C(=O)Nc2cccc(-c3nnc(-c4ccco4)o3)c2)c1,-0.3,-13%,-2.1%,-38%[inhibitor],-1.1,u,10%
COc1cc(C(=O)NCC(=O)Nc2c(C)cccc2C)ccc1OCc1ccccc1,6.5,-1.7%,-2.8%,u,x,1%,x
Nc1cc(=O)[nH]c(SCC(=O)Nc2ccccc2Sc2ccc(Cl)cc2)n1,5.2,x,1.2%,-3%[15.4 µM],0.0,x,17%
O=C(NC1CCCC1)C(c1ccsc1)N(Cc1ccccc1)C(=O)Cc1cccs1 (stereo unspecified),-3.0,-0.5%,24%,-48%,6.4,-20%,5%
COc1ccc([C@@H]2C(C#N)=C(N)S[C@@H](c3ccccc3)[C@@H]2[N+](=O)[O-])cc1,-3.4,1.4%,-0.6%,0%,-5.8,-21%,17%
COc1cccc(-c2nnc(SCc3cccnc3)o2)c1,2.0,-2.8%,0.0%,19%,-4.0,10%,-4%
COc1cccc(C(=O)NC2CC3CCCC(C2)N3CC(=O)Nc2ccc(N(C)C)cc2)c1 (stereo unspecified),-3.2,0.2%,0.9%,-52%[inhibitor],-0.9,-17%,4%
CCCCCn1cnc2sc(-c3ccccc3)cc2c1=O,-7.8,-15%,2.6%,-1%,8.1,-7%,23%
CCC(C)NC(=O)Nc1ccccc1F (stereo unspecified),-1.9,-3.1%,1.4%,-6%,10,23%,9%
CC(C)N(CC#CCC(O)(c1ccccc1)c1ccccc1)CCO,-1.1,x,-1.1%,10%[15.4 µM],-1.1,5%,45µM*
Cc1ccc(S(=O)(=O)NC(=O)C2(C)CCN2C(=O)c2ccccc2)cc1 (stereo unspecified),-3.1,0.7%,1.8%,x,x,x,x
CN(c1ccc(C(=O)NCc2ccco2)cc1)S(C)(=O)=O,-0.5,-1.9%,-0.6%,-22%,9.6,u,14%
O=C(NCC1CCCO1)C(=O)N/N=C/c1cccc(Cl)c1 (stereo unspecified),-2.0,-0.3%,-0.2%,-3%[15.4 µM],x,12%,0%
COc1cc(/C=C2\SC(N)=NC2=O)cc(Cl)c1O,-6.4,1.0%,4.4%,8%,u,-19%,4%
COC(=O)CNC(=O)COC(=O)c1cc(Cl)cc(Cl)c1N,5.7,2.8µM*,0.9%,-22%,1.2,7%,-4%
CC1CCN(C(=O)CNC(=O)Cn2ccc3ccccc3c2=O)CC1,-2.1,-27%,2.6%,21%,6.0,4%,16%
O=C(NCCN1CCN(c2ccccc2F)CC1)C1c2ccccc2C(=O)N2CCc3ccccc3C12 (stereo unspecified),-2.1,-3.0%,-0.8%,-13%,0.2,-11%,16%
CCn1c(N2CCN(Cc3ccc([N+](=O)[O-])cc3)CC2)nc2ccccc21,7.4,-0.4%,-1.4%,-31%[inhibitor],-1.8,-17%,-14%
COc1ccc(NC(=O)CCOc2ccc(C)cc2)cc1S(=O)(=O)N1CCOCC1,-4.1,1.0%,-1.5%,-28%,x,-1%,x
CCCOc1ccc(CNC(=S)N/N=C/c2ccc([N+](=O)[O-])cc2)cc1,9.6,0.0%,3.4%,-33%[inhibitor],3.1,7%,-4%
CC/C(=N\NC(=O)CSCc1ccccc1Cl)c1ccc2c(c1)OCCO2,2.3,1.0%,8.0%,8%,-2.9,2%,2%
CCN(CC)S(=O)(=O)c1cc(C(=O)Nc2ccccc2C(=O)O)ccc1OC,3.0,-1.0%,3.4%[38.3 µM],-4%,0.9,-27%,5%
COc1ccc(C2(c3ccc(OC)cc3)NC(=O)N(CC(=O)N(C)c3ccccc3)C2=O)cc1,0.6,-0.7%,0.8%,12%,x,u,-2%
OC(CNc1ncnc2sccc12)c1ccccc1 (stereo unspecified),-2.4,x,-2.0%,-18%,1.4,-17%,8%
O=C(COc1cccc2cccnc12)Nc1ccccc1N1CCOCC1,1.9,x,-0.6%,-3%[15.4 µM],-1.8,-21%,8%
CC(/C=C/c1ccc2c(c1)OCO2)=N/NC(=O)c1ccc(C)nc1,-5.9,0.9%,2.0%,u,12,-4%,4%
COc1ccc(C(CNC(=O)CNC(=O)c2cccc(Cl)c2)N2CCCC2)cc1 (stereo unspecified),-1.3,-3.9%,-2.7%,-2%,x,11%,x
Brc1ccc2nc(-c3ccco3)c(CC3CCCCC3)n2c1,-6.2,-3.3%,0.2%,x,x,x,x
CCc1nc2ccc(C(=O)Nc3ccc(OC)c(OC)c3)cn2c1N(C)CCC(C)C,9.5,2.9%,-0.6%,x,x,x,x
CCOC(=O)CCSc1nc(C)cc(C(F)(F)F)c1C#N,0.3,-7.6%,x,-28%,u,-11%,7%
COC(=O)CC(NS(=O)(=O)c1cccs1)c1ccccc1Cl (stereo unspecified),-4.9,1.2%,-1.4%,15%,1.9,6%,1%
CCCOc1ccc(C(C)=O)cc1CSc1nc(O)cc(=O)[nH]1,-3.2,-0.9%,-2.3%,14%,0.3,-16%,-2%
COC1(OC)N=C(NC(=O)Nc2ccccc2)C2(C#N)C(c3ccccc3)C12C#N (stereo unspecified),-1.0,0.3%,0.4%,-9%,3.8,1%,-91%
Cc1nc([N+](=O)[O-])cn1Cc1cccc2ccccc12,-3.2,-0.9%,-0.1%,-45%,-2.8,-5%,5%
COc1cccc(N2CCN(C(=O)CCCCCNc3nc(=S)[nH]c4ccccc34)CC2)c1,5.4,x,-0.8%,1%[15.4 µM],1.2,u,10%
COc1ccc(/C=N/NC(=O)c2cccc3ccccc23)c(OC)c1OC,-1.0,x,9.3%,35%[15.4 µM],x,-6%,x
O=C(c1ccc2c(c1)OCO2)N(Cc1cccs1)C1(C(=O)NC2CCCCC2)CCCCC1,-0.3,-1.6%,u,-5%[15.4 µM],-1.0,u,2%
N#C/C(=C/c1ccc([N+](=O)[O-])cc1)C(N)=O,4.1,34%,0.2%,4%[15.4 µM],0.1,-10%,10%
Cc1cccc(NC(=O)COC(=O)c2cc3ccccc3oc2=O)c1,-7.4,u,3.7%,-14%,-0.3,7%,12%
CN(C(=O)c1ccccc1C(=O)c1ccccc1)C1CCS(=O)(=O)C1 (stereo unspecified),-1.0,-1.7%,2.8%[38.3 µM],7%,3.5,-4%,-4%
CN1CC(=O)N/C1=N\C(=O)Nc1ccc2c(c1)N(C)C(=O)CS2,-0.3,0.3%,-4.8%[38.3 µM],-29%,3.4,3%,-24%
Cc1ccc(C(C)C)cc1S(=O)(=O)NCc1ccccn1,-2.1,1.4%,-1.3%,14%,0.4,-2%,1%
CCC(C)(C)NC(=O)c1ccc(Sc2nncn2C)c([N+](=O)[O-])c1,-0.6,1.2%,-1.8%,-2%[15.4 µM],-1.7,-5%,7%
N#Cc1ccsc1NC(=O)C1CCCN1S(=O)(=O)c1cccs1 (stereo unspecified),-5.1,x,0.9%,6%[15.4 µM],x,0%,x
CSc1nc(=S)cc(C)[nH]1,-2.5,x,-2.7%,-21%[15.4 µM],-1.8,-13%,35µM*
Cc1cccc2c1NC(=O)C21N2CCCC2C(C(=O)c2ccc3ccccc3c2)C12C(=O)Nc1ccccc12 (stereo unspecified),-1.1,-0.5%,1.0%,-1%,-3.2,-19%,-13%
COc1ccc(CNC(=O)NS(=O)(=O)c2ccc(C)cc2)cc1,-1.8,0.2%,-0.6%,x,-6.1,3%,5%
O=C(NCc1cccnc1)/C(=C/c1ccc([N+](=O)[O-])cc1)NC(=O)c1ccccc1,3.7,x,0.8%,1%,x,3%,x
O=C(COC(=O)c1cc(Br)ccc1O)NCC1CCCO1 (stereo unspecified),-2.4,-15%,-0.2%,-13%[15.4 µM],x,2%,x
Cc1ccc(NC(=O)CN2C(=O)NC(C)(c3ccccc3)C2=O)c(C)c1 (stereo unspecified),-18,-1.6%,7.9%,3%[15.4 µM],x,2%,9%
C=CCn1c(C)c(C(C)=O)c(N2CCCC2)nc1=S,-1.1,1.2%,-1.0%,19%,0.0,-6%,-17%
COC(=O)c1cc(NC2c3ccccc3C(=O)N2c2ccc(Cl)cn2)cc(C(=O)OC)c1 (stereo unspecified),-1.8,u,2.1%,-3%,3.8,-26%,-15%
COC(=O)c1[nH]c(C)c(/C(O)=C2\C(=O)C(=O)N(CCN(C)C)C2c2ccc(C)o2)c1C (stereo unspecified),-1.6,0.4%,2.5%,u,-1.5,13%,-9%
Cc1ccc(C(=O)NCCN(C)C)c(C)c1,-2.7,0.0%,1.9%,4%,-0.6,1%,22%
CCOc1ccc(C)cc1S(=O)(=O)Nc1cccnc1,-1.2,1.9%,11%,-34%[inhibitor],x,-13%,x
Cc1ccccc1-c1cc(Nc2ccc(F)cc2)ncn1,x,x,2.0%,x,4.6,x,-4%

# Whole records as entered above. Values in the order: D2 agonist, ClpP mod, PINK1 modulator, gsp ag, Menin-MLL FL inh, gsp antagonist, Sfp inh
# `OC(CNc1ncnc2sccc12)c1ccccc1` (stereo unspecified) is listed with -2.4, x, -2.0%, -18%, 1.4, -17%, 8%
# `COc1cccc(N2CCN(C(=O)CCCCCNc3nc(=S)[nH]c4ccccc34)CC2)c1` is listed with 5.4, x, -0.8%, 1%[15.4 µM], 1.2, u, 10%

# Bioassay records (PubChem BioAssay)
